RN4220 kill: kills Staphylococcus aureus RN4220. S. aureus RN4220 growth, OD600, 16 h. inhibition, % (concentration not given with the values). 0.33% of 330,000 active. AID 1259311;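 active = z-score of -3 or lower and OD600 up to 0.18 on both plates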;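 note: plate controls were untreated cells for no effect and reference antibiotic for full effect; stock transfer was 100 nL into about 80 µL; one replicate is shown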
Autofluor counter: compound fluorescence in toxin protease inhibitor counterscreen | compound autofluorescence counterscreen, microsphere flow cytometry; stronger effect = higher value | fluorescence intensity (no concentration beside the values) | 3.1% of 360,000 active;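 active = at least 3 SD above the mean of all compounds, about 16000 in these data; inconclusive = too few beads counted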;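 note: 100 nL of 1 mM stock went into each well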
PrP UTR inh: suppresses PrP 5' UTR mRNA reporter expression; cell-based PrP 5' UTR mRNA reporter, plate reader; inhibition, % (test concentration not listed); 0.35% of 340,000 active;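 active = every replicate at 50% or more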;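 note: 0 = median of the neutral control wells; tested in H4 reporter cells; numbers are from one replicate; inactives centre near -14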
Mtb hypoxia inh: Mtb hypoxia fluorescent reporter inhibition; M. tuberculosis hypoxia-regulated fluorescent reporter, fluorescence; fluorescence inhibition, % (concentration not given with the values); 0.1% of 300,000 active; AID 1159583;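 active = 35 to 45% if threefold the growth effect, above 45% if 1.5-fold the growth effect; inactive = the rest, general growth blockers included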;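 note: wells of about 50 µL received 100 nL stock; 0% = vehicle wells and 100% = reference inhibitor wells; whole bacteria with a GFP reporter of the hypoxia response; strong numbers were not always called active; many hits fall short of the cut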
Sa ugtP lethal: compounds lethal to S. aureus RN4220 ugtP deletion mutant. OD600 growth, 16 h; some inactives read as strong as hits. growth inhibition, % (test concentration not listed). 0.54% of 330,000 active. AID 1259309;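 active = z-score under -3 and OD600 up to 0.15 on both plates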;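 note: plate controls were untreated wells for no effect and antibiotic for full effect; wells of about 80 µL received 100 nL stock; the first replicate is given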
BJeLR lethal: kills HRASV12-expressing BJeLR cells | BJeLR (HRASV12) viability, CellTiter-Glo ATP luminescence, 48 h; reference of the scale not given here | 0.17% of 300,000 active | AID 1554 | inhibition, % (no concentration beside the values);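 active = replicate mean above 50%; inconclusive = above 50% but judged a plate artefact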;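 note: 50 nL library stock added to about 25 µL; numbers are from one replicate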
Mtb hypoxia inh growth: further read-out of Mtb hypoxia inh, marked with its call; growth inhibition, %; measured here: M. tuberculosis growth (absorbance);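 0% = vehicle and 100% = reference antibiotic; read after six days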
Numbers without * were called inactive; ? = inconclusive; nt = not tested or not shown.

Molecule | RN4220 kill | Autofluor counter | PrP UTR inh | Mtb hypoxia inh | Mtb hypoxia inh growth | Sa ugtP lethal | BJeLR lethal
COc1cc(/C=C2\NC(=S)NC2=O)ccc1OCc1cccc(C(=O)O)c1 | 5.0 | 2796 | -15.4 | 9.8 | -4.4 | 12.8 | -1.0
CC(=O)Nc1cc(NC(C)=O)cc(C(=O)OCC(=O)c2ccc3c(c2)OCO3)c1 | 1.4 | nt | 1.2 | -16.3 | -23.1 | -0.8 | 13.8
CC(=O)NCCCC(=O)NC(CCC(=O)OCc1ccccc1)C(=O)OCc1ccccc1 (stereo unspecified) | -5.0 | 3904 | -4.9 | 5.9 | -4.0 | 0.4 | 4.0
CCC(=O)Nc1ccc2nc(SCC(=O)N3CCCC3)sc2c1 | 3.2 | 20940* | -0.2 | 3.3 | 1.0 | 2.1 | -10.2
COc1cc(C(=O)Oc2cccc(C)c2)cc(OC)c1OC | 4.8 | 2345 | -16.7 | nt | nt | 3.4 | 13.8
Cn1cc(C(=O)c2ccc(Cl)cc2Cl)cc1C(=O)NN=C(N)COc1ccc(Cl)cc1 | -5.9 | nt | nt | 9.2 | 0.7 | -1.9 | nt
CCOc1ccccc1NC(=O)COC(=O)Cc1cccs1 | 1.3 | 4435 | -25.7 | -0.3 | -9.2 | 2.9 | -1.6
Cc1ccc(C(CC(=O)NCCCN(C)C)c2ccc(OC(C)C)cc2)cc1 (stereo unspecified) | -0.4 | 3413 | -16.8 | 2.6 | 1.5 | 3.7 | 19.0
CCNC(=S)N1CCN(c2ccccn2)CC1 | 0.6 | 1977 | -9.7 | 4.2 | 0.9 | 9.7 | 5.4
Cc1cc(NS(=O)(=O)c2ccc(NC(=O)NC3CCCCC3)cc2)no1 | 1.8 | 17035* | -9.3 | 10.9 | 13.4 | 7.1 | 4.5
CC1CN(C(=O)COc2ccc3ccccc3c2Br)CC(C)O1 (stereo unspecified) | 1.8 | 4738 | -0.9 | 11.8 | 5.4 | 0.6 | -4.8
O=C(Nc1ccc(F)cc1)C1CCCCC1 | -10.4 | 3076 | -10.9 | 13.8 | 14.6 | -5.7 | 3.7
COc1ccc(OC)c(NC(=O)COC(=O)Cc2ccsc2)c1 | 2.6 | 2859 | -9.8 | 9.1 | 4.3 | 8.6 | nt
CCOC(=O)C1Nc2ccccc2C2C(O)C(O)CC12 (stereo unspecified) | 9.2 | 3367 | -1.5 | 8.2 | 11.6 | -5.6 | 10.9
CCCNC(=S)Nc1cccc(C(F)(F)F)c1 | 0.2 | 1956 | -8.6 | 12.2 | 10.0 | 2.4 | 1.9
CC(C)OCc1c(C(=O)Nc2nccs2)oc2ccccc12 | nt | 4748 | 1.8 | nt | nt | nt | -21.5
COc1ccccc1NC(=O)c1ccc(N)cc1 | 5.3 | 9600 | -15.6 | 6.6 | 7.0 | 0.2 | -0.9
Cc1c(Cl)cccc1NCC(=O)Nc1ccc(Cl)cc1F | -1.2 | 2479 | -27.0 | nt | nt | -25.6 | 6.7
CSc1nnc2c(n1)OC=Nc1ccccc1-2 | 4.2 | 3952 | -31.3 | nt | nt | -2.8 | -0.8
OCC(O)C(O)C(O)C(O)C1NCCS1 (stereo unspecified) | 6.3 | 5930 | -63.8 | 15.6 | 4.6 | 12.0 | -5.3
CCO/C=N/c1c(C#N)c2c(c(=S)n1C)COC(C)(C)C2 | nt | 2886 | -20.1 | nt | nt | nt | -0.5
C=CCNC(=O)NC(=O)COC(=O)[C@H](C)NS(=O)(=O)c1c(C)c(C)cc(C)c1C | 0.8 | 4136 | -31.7 | 14.1 | 4.0 | 2.0 | 7.3
Cn1c(=O)c2c(nc(CN3CCN(C(c4ccccc4)c4ccccc4)CC3)n2CC(N)=O)n(C)c1=O | -4.0 | 21667* | -0.1 | -6.6 | 1.4 | -2.8 | 1.7
Cc1ccnc(SCc2cc(=O)c(OC(=O)c3cccs3)co2)n1 | 4.0 | 4637 | -7.1 | -11.5 | -2.2 | 17.4 | 3.3
NN=C1C(=O)c2cccc3cccc1c23 | 6.1 | 3898 | -31.5 | 16.7 | 8.0 | -7.4 | nt
CC1CCCC(NC(=O)C2CCN(S(=O)(=O)N3CCCCC3)CC2)C1C (stereo unspecified) | 4.5 | 4037 | -26.8 | 12.4 | 5.4 | -0.1 | 1.5
COc1nnc(-c2ccc(N3CCCCC3)c(NC(=O)COc3ccccc3)c2)c2ccccc12 | 3.4 | 5783 | -30.0 | 0.8 | 6.6 | 5.8 | nt
Cc1ccc(S(=O)(=O)N2CCCCC2)cc1NC(=O)c1ccc2c(c1)OCO2 | 3.3 | 2078 | -7.9 | 1.7 | 10.5 | 2.5 | -5.7
CN(C)S(=O)(=O)c1cccc(NC(=O)COc2cccc3ccccc23)c1 | 2.7 | ? | -7.5 | 5.8 | 10.8 | 0.5 | nt
COc1ccc(CCc2nnc(CCC(=O)NCc3cnc4ccccn34)o2)cc1 | -1.2 | 2789 | -16.6 | -0.2 | -6.4 | 0.3 | 5.1
O=C(c1ccc(S(=O)(=O)NCC2CCCO2)cc1)N1CCN(c2cccc(Cl)c2)CC1 (stereo unspecified) | 1.8 | 3853 | -14.4 | 5.2 | 2.0 | -6.1 | 5.8
COc1ccccc1NC(=O)N1CCCC1C(=O)NCc1ccc2c(c1)OCO2 (stereo unspecified) | 5.7 | 3288 | -8.1 | 4.1 | 0.0 | -0.4 | -8.3
Cc1ccc(N2C(=O)CC(c3c[nH]c4ccccc34)C2=O)cc1 (stereo unspecified) | 7.0 | 4671 | -26.6 | 9.2 | 9.0 | 0.1 | -6.5
Cc1ccc(S(=O)(=O)NCC(C)n2cncn2)cc1C (stereo unspecified) | 8.8 | 5646 | -14.6 | 0.5 | -2.8 | 3.9 | -4.7
O=C(Nc1ccc(S(=O)(=O)Nc2ncccn2)cc1)C12CC3CC(CC(C3)C1)C2 | 5.1 | 6129 | -15.9 | 13.2 | 9.2 | 0.2 | -3.0
CCCCn1c(N)c(N(CCOC)C(=O)CN(C)S(=O)(=O)c2ccc(C)cc2)c(=O)[nH]c1=O | -0.4 | ? | -25.6 | -0.8 | -0.5 | 7.0 | -1.5
COc1ccc(-c2noc(N3CCC(C(=O)NCc4ccc(Cl)cc4)CC3)n2)cc1 | -1.4 | 5672 | -31.7 | -0.4 | -1.5 | -3.2 | 12.3
O=C(CN1C(=O)C2CCCCC2C1=O)Nc1cc(C(F)(F)F)ccc1N1CCCC1 (stereo unspecified) | 0.1 | ? | -5.1 | -10.0 | 13.3 | 0.1 | -5.9
CCCCn1c(O)c(C(C)=NCCc2c[nH]c3ccccc23)c(=O)[nH]c1=O | 1.7 | 5010 | -7.6 | -1.7 | 14.0 | -7.5 | -13.1
NC(=O)c1ccsc1NC(=O)COc1ccccc1 | 10.2 | 10185 | -95.4 | 4.2 | 10.1 | -2.6 | 4.2
COc1cc(-c2nc3ccccn3c2/N=C/c2cc(OC)c(O)cc2Cl)ccc1O | nt | 4689 | -12.3 | nt | nt | nt | 4.3
CC(=O)c1cccc(NC(=O)Cc2coc3cc4c(cc23)CCC4)c1 | -7.9 | 2038 | -14.4 | 10.9 | 0.1 | 0.7 | -0.8
O=C1c2ccccc2C(=O)N1CCCCN(C(=O)c1cc2ccccc2oc1=O)c1ccc(Cl)cc1 | 3.2 | 8989 | -17.6 | 8.6 | -0.3 | 0.7 | 6.7
O=C(O)C1CCCN1S(=O)(=O)c1cccc2nsnc12 (stereo unspecified) | -1.1 | 3617 | -13.9 | -1.9 | 2.6 | 4.3 | 0.1
O=C(O)c1ccccc1Nc1ccc([N+](=O)[O-])cc1 | 15.3 | 2327 | -26.5 | -1.2 | -4.2 | -3.4 | 19.2
CC(=O)N1C2CCCCC2S[C@H]2CCCCC21 (stereo partly specified) | 6.1 | 3228 | -16.8 | 14.6 | 12.0 | 8.4 | 7.6
CC(=O)NC1C2CN3CCN(C2)CC1(Cc1ccccc1)C3 (stereo unspecified) | 0.0 | 7821 | -18.7 | 0.1 | 3.3 | 3.8 | 9.4
N#Cc1c(NC(=O)CSc2nnc(-c3ccncc3)n2CC2CCCO2)sc2c1CCCC2 (stereo unspecified) | 7.3 | 4397 | -17.2 | -76.9 | -7.2 | -0.2 | 0.0
CC(C)=CC(=O)OCC(=O)Nc1cc(C)ccc1C | 3.9 | 4461 | 5.8 | 0.1 | 9.4 | 7.0 | -12.6
O=C1CCC(C(=O)N2CCCO2)CN1Cc1cccc(C(F)(F)F)c1 (stereo unspecified) | 5.5 | 4260 | -12.0 | 6.9 | 1.5 | 11.8 | 4.5
COc1ccc(C)c2sc(=NC(=O)c3cccc(N4C(=O)CCC4=O)c3)n(C)c12 | 3.0 | 3451 | -5.6 | -4.6 | -11.7 | 1.1 | 7.3
S=C(Nc1ccc2c(c1)OCO2)Nc1ccc2c(c1)OCO2 | 1.2 | 2154 | -38.1 | 10.4 | 20.0 | -5.0 | -14.0
Cc1ccc(/C=N\NC(=O)C2CC(=O)N(c3ccccc3)C2)o1 (stereo unspecified) | nt | 5587 | -27.2 | nt | nt | nt | -4.5
O=C(N=C1c2ccccc2CN1c1ccccc1)c1cccc([N+](=O)[O-])c1 | 7.2 | 2769 | -15.3 | 2.7 | -2.6 | 8.8 | 1.2
CCn1c(CC(=O)Nc2ccccc2)nnc1SCC(=O)Nc1nncs1 | 5.1 | 3709 | -26.8 | -0.7 | 1.1 | 6.8 | -9.9
CCc1nc(NCCN2CCOCC2)c2oc3ccccc3c2n1 | 5.4 | 2972 | -25.7 | 2.3 | 4.0 | -4.8 | -2.4
Cc1cccc(NC(=O)Cn2c(C)c(C#N)c3ccccc32)c1C | 8.4 | 2959 | -9.8 | 5.2 | 2.9 | 9.6 | -13.4
O=C(O)c1ccc2c(c1)C(=O)N(CCc1ccccc1)C2=O | 3.4 | 4180 | -13.1 | 0.9 | 4.0 | 3.7 | -1.6
O=C(O)c1nn(CC(=O)N2CCN(S(=O)(=O)c3ccc(Cl)cc3)CC2)c(=O)c2ccccc12 | 1.0 | 4897 | -14.4 | -7.5 | -11.9 | -8.9 | 6.5
Cc1nc(Cl)c2c(n1)NC1=C(O2)C(=O)CCC1 | 0.3 | 2170 | -19.2 | -11.1 | 8.1 | 4.0 | 0.6

The results go on.
Molecule | RN4220 kill | Autofluor counter | PrP UTR inh | Mtb hypoxia inh | Mtb hypoxia inh growth | Sa ugtP lethal | BJeLR lethal
Cc1cc(C)n2nc(C(=O)OCC(=O)NCc3ccccc3)nc2n1 | -1.7 | 5362 | -12.5 | -2.1 | 4.8 | -3.3 | nt
Cc1ccc(NC(=O)CNc2ccccc2CN(C)C2CCCCC2)cc1 | 0.8 | 3251 | 28.5 | 0.5 | 9.0 | 6.5 | 1.9
O=C(COc1ccccc1Cl)NCc1ccccc1 | 4.4 | 3740 | -25.2 | 13.0 | 15.2 | 7.8 | -2.3
O=C(NCc1cccs1)C1CCCN1C(=O)Nc1ccccc1 (stereo unspecified) | -1.3 | 3500 | -7.5 | 1.2 | 5.5 | 2.8 | 0.1
COc1ccc(OC)c(-c2csc(NC(=O)Cc3ccc(F)cc3)n2)c1 | -7.3 | 4096 | -19.5 | 8.7 | 3.1 | -18.1 | -6.5
O=S(c1ccc2ccccc2c1)c1cnns1 (stereo unspecified) | 1.0 | nt | 3.0 | 13.0 | 10.6 | -10.4 | nt
CCCN(CCC)CCCNC(=S)Nc1ccc2nc(N3CCN(CC)CC3)cc(C)c2c1 | 4.5 | 3705 | -24.9 | 10.2 | 5.9 | 15.3 | -9.3

In a second layout: three of the compounds above
Values in the order: RN4220 kill	Autofluor counter	PrP UTR inh	Mtb hypoxia inh	Mtb hypoxia inh growth	Sa ugtP lethal	BJeLR lethal
- CC(C)OCc1c(C(=O)Nc2nccs2)oc2ccccc12
→ nt	4748	1.8	nt	nt	nt	-21.5
- CC1CCCC(NC(=O)C2CCN(S(=O)(=O)N3CCCCC3)CC2)C1C (stereo unspecified)
→ 4.5	4037	-26.8	12.4	5.4	-0.1	1.5
- CC(=O)NC1C2CN3CCN(C2)CC1(Cc1ccccc1)C3 (stereo unspecified)
→ 0.0	7821	-18.7	0.1	3.3	3.8	9.4

Bioassay records as filed in PubChem.
